Source: PubChem (National Center for Advancing Translational Sciences (NCATS))
EPAC2 ant val – human EPAC2 antagonism, validation. EPAC2 Rap1B BODIPY-GDP exchange, fluorescence. Potency, µM (top dose mostly 112 µM), without a hit: top-dose activity, negative = inhibition, usual class: inhibitors. 16,000 tested, 1.7% active; active = well fitted inhibition curve with a large enough effect; inconclusive = small, poorly fitted or top-dose-only effect; inactive = no such curve, though single readings can be large or run the other way;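 note: 100% = activation by cAMP agonist control; nearly all actives have a fitted effect of over 40% in size; the record reuses the description of the EPAC1 agonist screen; inactives centre near -10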
Target sequence (Q8WZA2 whole entry, looked up): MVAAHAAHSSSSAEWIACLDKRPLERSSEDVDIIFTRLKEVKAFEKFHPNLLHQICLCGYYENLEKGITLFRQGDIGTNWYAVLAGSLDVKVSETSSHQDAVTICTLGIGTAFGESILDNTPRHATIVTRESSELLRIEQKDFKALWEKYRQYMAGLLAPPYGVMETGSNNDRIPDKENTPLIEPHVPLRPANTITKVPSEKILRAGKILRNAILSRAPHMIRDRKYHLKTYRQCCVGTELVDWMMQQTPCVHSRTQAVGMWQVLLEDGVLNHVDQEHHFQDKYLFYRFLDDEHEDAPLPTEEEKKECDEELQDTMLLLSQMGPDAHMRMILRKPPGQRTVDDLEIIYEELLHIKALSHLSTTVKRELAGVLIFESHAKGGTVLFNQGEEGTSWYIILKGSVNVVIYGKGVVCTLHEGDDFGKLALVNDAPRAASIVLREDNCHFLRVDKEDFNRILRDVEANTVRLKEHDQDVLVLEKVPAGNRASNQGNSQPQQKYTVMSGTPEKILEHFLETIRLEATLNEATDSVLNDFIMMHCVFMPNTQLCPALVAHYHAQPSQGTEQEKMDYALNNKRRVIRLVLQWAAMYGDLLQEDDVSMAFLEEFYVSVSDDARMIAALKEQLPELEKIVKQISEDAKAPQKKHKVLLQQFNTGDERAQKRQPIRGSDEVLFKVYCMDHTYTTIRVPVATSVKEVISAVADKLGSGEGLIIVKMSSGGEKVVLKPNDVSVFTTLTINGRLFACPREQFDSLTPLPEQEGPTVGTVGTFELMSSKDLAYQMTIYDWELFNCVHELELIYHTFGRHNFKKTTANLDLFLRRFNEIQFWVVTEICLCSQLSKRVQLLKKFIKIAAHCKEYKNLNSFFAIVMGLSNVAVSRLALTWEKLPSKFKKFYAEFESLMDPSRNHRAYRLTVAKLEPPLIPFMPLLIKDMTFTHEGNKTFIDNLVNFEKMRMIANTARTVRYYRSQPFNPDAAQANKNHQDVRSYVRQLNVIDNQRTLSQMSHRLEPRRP
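Fluorescent exchange read-out: 100 nM EPAC2 with 250 nM RAP1B–BODIPY-GDP and 50 uM GDP; BODIPY-GDP release lowers fluorescence. Read at 480/540 nm every 5 min for 30 min at room temperature; normalized to 6.5 mM cAMP.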
The depositor's hits bear a star; ? = inconclusive; & = joins results of further samples; [ ] = dose if it differs, or a comment. Potency is the fitted concentration of half-maximal effect. Only part of the results is shown; rates above refer to the full screens.

structure,EPAC2 ant val
CCCCCC1C(=O)O[C@H](C)[C@@H](NC(=O)c2cccc(NC=O)c2O)C(=O)OC(C)C1OC(=O)CC(C)C (stereo partly drawn),56µM*
CCCN1CCc2cc(O)cc3c2C1Cc1ccc(O)c(O)c1-3 (stereo not drawn),-18%
Ic1ccccc1CNC1C2CCN(CC2)C1C(c1ccccc1)c1ccccc1 (stereo not drawn),3%
C[C@]12CCC(=O)C=C1CC[C@@H]1[C@@H]2CC[C@@]2(C)[C@H]1CC[C@]2(C)O,7%&7%
CCCN(CCC)C1CCc2cccc(O)c2C1 (stereo not drawn),?
COC(=O)c1cc2c(cn1)[nH]c1ccccc12,-13%
C[C@H](N)[C@H](O)c1ccc(O)c(O)c1,10%[151 µM]
O=C1NCN(c2ccccc2)C12CCN(C[C@H]1COc3ccccc3O1)CC2,-21%
NC1=NC(=O)N2CC12 (stereo not drawn),-24%
CN1CCc2cc(O)cc3c2C1Cc1ccc(O)c(O)c1-3 (stereo not drawn),0%
Oc1ccc2c3c1O[C@H]1[C@@H](O)CC[C@@]4(O)[C@@H](C2)N(CC2CCC2)CC[C@]314,6%
CCOC(=O)[C@]12Cc3c(cc(OC)c(OC)c3OC)[C@H]1N(Cc1ccccc1)C(=O)c1ccccc12,?
CC(=O)OC1CCC23C(=O)OC45CCC(C6=CC(=O)OC6)C4(C)CCC2C5CCC3(O)C1 (stereo not drawn),-8%
CCCC(C)(COC(N)=O)COC(=O)NC1CC1 (stereo not drawn),7%
CN1C(=O)[C@@H](NC(=O)c2cc3ccccc3[nH]2)N=C(c2ccccc2)c2ccccc21,-8%
CC1(C)C(C(Cl)Cl)C2(Cl)C(Cl)C(Cl)C1(Cl)C2(Cl)Cl (stereo not drawn),-10%
C=C1C([C@@H](O)C[C@H](C)C2O[C@@]3(CCCCO3)CC[C@H]2C)OC2CC[C@@]3(CC[C@@H](/C=C/[C@@H](C)C4CC(C)=C[C@]5(O4)O[C@H](C[C@@](C)(O)C(=O)O)CCC5O)O3)OC2[C@@H]1O (stereo partly drawn),-6%[5.85 µM]
COc1ccc(C(=O)O)cc1OC,2%
c1ccc(N2CCC3(CCNCC3)CC2)nc1,10%
O=C1CCCC2[C@@H]3CCCN4CCC[C@@H](CN12)C34 (stereo partly drawn),-5%
N#Cc1ccc(CN2CC3(CCNCC3)C2)cc1,-25%
S=C(NC1CCCCC1)N1CCC(c2cnc[nH]2)CC1,-14%&-11%
O=C1CCC[C@H]2[C@H]3CCCN4CCCC(=CN12)[C@@H]34,10%
C[C@]12CC[C@H]3[C@@H](CCC4=C(Cl)C(=O)CC[C@@]43C)[C@@H]1CC[C@@H]2O,-27%

Quoted from the listing for reference:
structure,EPAC2 ant val
S=C(NC1CCCCC1)N1CCC(c2cnc[nH]2)CC1,-14%&-11%
O=C1CCC[C@H]2[C@H]3CCCN4CCCC(=CN12)[C@@H]34,10%
C[C@]12CC[C@H]3[C@@H](CCC4=C(Cl)C(=O)CC[C@@]43C)[C@@H]1CC[C@@H]2O,-27%

Returning to the listing, repeating the 3 entries before the break.
structure,EPAC2 ant val
S=C(NC1CCCCC1)N1CCC(c2cnc[nH]2)CC1,-14%&-11%
O=C1CCC[C@H]2[C@H]3CCCN4CCCC(=CN12)[C@@H]34,10%
C[C@]12CC[C@H]3[C@@H](CCC4=C(Cl)C(=O)CC[C@@]43C)[C@@H]1CC[C@@H]2O,-27%
CCCCC/C=C\C/C=C\C/C=C\C/C=C\CCCCCC(=O)NCCO,-8%[11.4 µM]
CC1OC(O[C@@H]2C(O)CC(O[C@@H]3C(O)C[C@@H](OC4CC[C@]5(C)[C@H](CC[C@H]6[C@@H]5CC[C@]5(C)C(C7=CC(=O)OC7)C(O)C[C@@]65O)C4)OC3C)OC2C)CC(O)C1O (stereo partly drawn),-1%
C#C[C@]1(O)CC[C@H]2[C@@H]3CCC4=CC(=O)CCC4=C3C=C[C@@]21CC,5%
CC(=O)c1c(O)c(C)c(O)c(Cc2c(O)c3c(c(C(=O)/C=C/c4ccccc4)c2O)OC(C)(C)C=C3)c1O,-1%&-9%&-8%&-20%
O=CN1CCCCC1C1CC[C@H]2CCCCN2C1 (stereo partly drawn),-4%
O=c1ccc2[nH]cc(C3=CCNCC3)c2[nH]1,-14%
OC[C@@H](O)[C@H]1O[C@@H]2O[C@H](C(Cl)(Cl)Cl)O[C@@H]2[C@H]1O,-1%
Fc1ccc(C(OCCN2CCN(C/C=C/c3ccccc3)CC2)c2ccc(F)cc2)cc1,?
C=CCN1C[C@H](C)N([C@H](c2ccc(C(=O)N(CC)CC)cc2)c2cccc(OC)c2)C[C@H]1C,?
C[C@@H]1O[C@H](O[C@@H]2C[C@@H](O)[C@]3(CO)[C@H]4[C@H](O)C[C@]5(C)[C@@H](C6=CC(=O)OC6)CC[C@@]5(O)[C@@H]4CC[C@]3(O)C2)[C@@H](O)[C@H](O)[C@H]1O,-21%
OC[C@@H]1CCCN2CCCC[C@@H]12,-8%
c1ccc(CCN2CCCC2)cc1,-26%
C=CC[C@]1(O)CC[C@H]2[C@@H]3CCC4=CCCC[C@@H]4[C@H]3CC[C@@]21C,-8%
CN1C[C@H](CNC(=O)OCc2ccccc2)C[C@H]2c3cccc4c3c(cn4C)C[C@@H]21,-12%
Cc1noc(C)c1C(=O)N1CCC2(CCCN(CC(C)C)C2)CC1,-9%
C#CCOC(=O)C1=CCCN(C)C1,7%&-7%&-17%

Individual results from above:
Under EPAC2 ant val, `CN1C[C@H](CNC(=O)OCc2ccccc2)C[C@H]2c3cccc4c3c(cn4C)C[C@@H]21` is listed with -12%
Under EPAC2 ant val, `C=CC[C@]1(O)CC[C@H]2[C@@H]3CCC4=CCCC[C@@H]4[C@H]3CC[C@@]21C` is listed with -8%
Under EPAC2 ant val, `C#CCOC(=O)C1=CCCN(C)C1` is listed with 7%&-7%&-17%
Under EPAC2 ant val, `c1ccc(CCN2CCCC2)cc1` is listed with -26%
Under EPAC2 ant val, `C[C@@H]1O[C@H](O[C@@H]2C[C@@H](O)[C@]3(CO)[C@H]4[C@H](O)C[C@]5(C)[C@@H](C6=CC(=O)OC6)CC[C@@]5(O)[C@@H]4CC[C@]3(O)C2)[C@@H](O)[C@H](O)[C@H]1O` is listed with -21%
Under EPAC2 ant val, `OC[C@@H]1CCCN2CCCC[C@@H]12` is listed with -8%

Further results follow:
structure,EPAC2 ant val
CC(C)[C@]1(O)[C@@H](OC(=O)c2ccc[nH]2)[C@@]2(O)[C@@]3(C)C[C@]4(O)O[C@@]5([C@H](O)[C@@H](C)CC[C@]35O)[C@@]2(O)C41C,-4%
CC(N)c1cccc(Cl)c1Cl (stereo not drawn),-12%
CC(=O)N1CC2CC(C1)c1cccc(=O)n1C2 (stereo not drawn),5%
COc1cc2c(c(OC)c1OC)-c1ccc(O)c(=O)cc1C(NC(C)=O)CC2 (stereo not drawn),-4%
COc1ccc(C(CN(C)C)C2(O)CCCCC2)cc1 (stereo not drawn),?
O=c1[nH]c(=O)n(Cl)c(=O)n1Cl,-24%
O=C1CCCC2C3CC(CN12)C1CCCCN1C3 (stereo not drawn),-21%
COc1cccc(-c2ccc(O)c(CNC3CN4CCC3CC4)c2)n1 (stereo not drawn),-4%

The final 5 entries of the section before open the next one.
structure,EPAC2 ant val
COc1cc2c(c(OC)c1OC)-c1ccc(O)c(=O)cc1C(NC(C)=O)CC2 (stereo not drawn),-4%
COc1ccc(C(CN(C)C)C2(O)CCCCC2)cc1 (stereo not drawn),?
O=c1[nH]c(=O)n(Cl)c(=O)n1Cl,-24%
O=C1CCCC2C3CC(CN12)C1CCCCN1C3 (stereo not drawn),-21%
COc1cccc(-c2ccc(O)c(CNC3CN4CCC3CC4)c2)n1 (stereo not drawn),-4%
C[C@]12CCC3C(CC[C@H]4C[C@H](O)CC[C@]34C)C1CC[C@@H]2C(=O)CO (stereo partly drawn),-10%
C[C@@]12CC(c3ccoc3)OC(=O)C1CC[C@@]1(C)C2C2C=C[C@@]1(O)C(=O)O2 (stereo partly drawn),-2%
C[C@]12[C@H](O)CC3C(CC[C@@H]4C[C@@H](O)CC[C@]34C)[C@@]1(O)CC[C@@H]2C1=CC(=O)OC1 (stereo partly drawn),-10%
CCC(C)C(=O)OC1C(O)C2C(CN3CC(C)CCC3[C@]2(C)O)C2C[C@]34O[C@@]5(O)C(OC(=O)C(C)(O)C(C)O)CCC3(C)C5C(OC(C)=O)C(OC(C)=O)C4[C@@]21O (stereo partly drawn),-10%
CCN(CC)CCO[C@H]1CC[C@@]2(C)C(=CC[C@@H]3[C@H]2CC[C@]2(C)C(=O)CC[C@H]32)C1,-30%
CC1(C)[C@@H](O)C[C@H]2[C@](C)(O)[C@@H]3CC[C@H]4[C@@H](O)[C@@]3(C[C@@H](O)[C@@]21O)C[C@@]4(C)O,-2%[151 µM]
NCC(=O)c1ccc(Cl)c(Cl)c1,-14%
COc1ccc2c(c1)c(CCN1CCOCC1)c(C)n2C(=O)c1cccc(Cl)c1Cl,?
c1ccc(CCCCN2CCC(c3ccccc3)CC2)cc1,-7%&-21%
CC(=O)CC1CCCCN1 (stereo not drawn),1%
CCCCCCC(=O)O[C@H]1CC[C@H]2[C@@H]3CC[C@H]4CC(=O)C=C(C)[C@]4(C)[C@H]3CC[C@]12C,-8%
NNC(=O)c1ccc(O)cc1,-18%
Clc1cncc(N2CCNCC2)n1,20%&-22%
NCCc1c[nH]c2ccccc12,?
COc1ccccc1CN1CC[C@@]2(CCCN(C(=O)Oc3ccccc3)C2)C1,?
COc1cc(C[C@H](C)N)c(OC)cc1C,22%[239 µM]
COc1cc(C[C@@H](C)N)c(OC)cc1C,29%[239 µM]
Cc1c(O)c(O)cc2c1CC=C1[C@]3(C)CC[C@]4(C)CC[C@@](C)(C(=O)O)CC4[C@]3(C)CC[C@]12C (stereo partly drawn),-7%
CCNC(C)Cc1cccc(C(F)(F)F)c1 (stereo not drawn),-2%
CCOC(=O)[C@]12Cc3cc4c(cc3[C@H]1N(Cc1ccccc1)C(=O)c1ccccc12)OCO4,?
N[C@@H](Cn1cc(I)c(=O)[nH]c1=O)C(=O)O,-25%
COc1ccc(CCN)cc1O,0%
CC(C)CN1CC2(CCN(C(=O)c3ccncc3)CC2)C1,-24%
C[C@]12CCC(=O)C=C1C=C[C@@H]1[C@@H]2CC[C@@]2(C)[C@H]1CC[C@@]2(O)CCC(=O)O,-1%[56.6 µM]
NC(=O)[C@@H]1CCCN1C(=O)[C@H](Cc1ccccc1)NC(=O)[C@@H]1CCCN1C(=O)[C@@H](N)Cc1ccc(O)cc1,-2%[11.4 µM]
O=P(O)(O)C(Cl)(Cl)P(=O)(O)O,38%&32%[activator]
OCCN(CCO)CCO,-26%
CN1CCCC(=C(c2cccs2)c2cccs2)C1,4%
C[C@]1(O)CC[C@H]2[C@@H]3CCC4=CC(=O)CC[C@]4(C)[C@@]3(F)[C@@H](O)C[C@@]21C,-18%
O=C1C2CC=CCC2C(=O)N1SC(Cl)(Cl)Cl (stereo not drawn),7%
CC(C)Oc1cccc(NC(=O)c2ccccc2C(F)(F)F)c1,?
CC(=O)OC1CC[C@]2(C)C(CCC3C2CC[C@]2(C)C(C4=CC(=O)OC4)C(OC(C)=O)CC32O)C1 (stereo partly drawn),-19%
CNC(=O)Oc1cccc2ccccc12,4%
CC1CC(C)C(=O)[C@H](C(O)CC2CC(=O)NC(=O)C2)C1 (stereo partly drawn),-9%
CN1C(=O)C(O)N=C(c2ccccc2)c2cc(Cl)ccc21 (stereo not drawn),-16%
C=CCC1([C@@H](C)CCC)C(=O)NC(=O)NC1=O,7%[239 µM]
CN1C2CC3CC1C(O3)C2O (stereo not drawn),-25%
CCC1(c2ccccc2)C(=O)N(COC)C(=O)N(COC)C1=O,-12%
Clc1cccc(N2CCNCC2)c1,5%&-14%
COC([CH2][Hg])CNC(=O)c1ccccc1OCC(=O)O (stereo not drawn),26%
CCC(COC(=O)c1cc(OC)c(OC)c(OC)c1)(c1ccccc1)N(C)C (stereo not drawn),-30%
C=CCSSCC=C,-4%
